Bioassay records deposited in PubChem by National Center for Advancing Translational Sciences (NCATS).
Cruzain noTriton: cruzain (T. cruzi) inhibition without detergent. P25779. purified cruzain, Z-FR-AMC fluorescence, no detergent. Potency, µM, for the others: max response, negative = inhibition, actives largely listed as inhibitors. 200,000 compounds, 2.3% hits; active = well fitted curve in the direction sought with a large enough effect; inconclusive = small, poorly fitted or top-dose-only effect, or another doubt; inactive = no such curve, though single readings can be large; an effect the other way counts as inactive or inconclusive;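 note: plate controls were enzyme without inhibitor for no effect and buffer without enzyme for full effect; nearly all actives have a fitted effect of over 40% in size; top concentration of the series not given in the record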
Target sequence (P25779 123-467 limits assumed): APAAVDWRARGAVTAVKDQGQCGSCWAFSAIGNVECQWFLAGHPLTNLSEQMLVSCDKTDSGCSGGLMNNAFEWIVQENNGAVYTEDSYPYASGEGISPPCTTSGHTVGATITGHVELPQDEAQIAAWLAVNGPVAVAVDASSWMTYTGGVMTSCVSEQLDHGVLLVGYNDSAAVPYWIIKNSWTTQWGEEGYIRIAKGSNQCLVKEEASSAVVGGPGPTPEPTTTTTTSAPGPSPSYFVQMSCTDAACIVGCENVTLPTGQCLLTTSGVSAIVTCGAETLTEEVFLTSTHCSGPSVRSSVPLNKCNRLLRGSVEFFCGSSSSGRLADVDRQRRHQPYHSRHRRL
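Detergent-free condition (0.00005% Triton X-100) in acetate buffer pH 5.5 with DTT. 1.5 nM enzyme and compound were pre-mixed 15 min, then 2 uM Z-FR-AMC substrate added; reaction progress from fluorescence change between first and third reads (60 s).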
RE007 growth inh: less growth of the S. pombe RE007 Vpr strain | S. pombe RE007 Vpr strain, BacTiter-Glo ATP luminescence, 24 h; control for the full effect not named in the record | Potency, µM (titrated, usually from 92.2 µM), for the others: top-dose activity change, negative = less growth | 360,000 compounds, 0.21% hits | AID 651644; active = well fitted falling curve with a large enough effect; inconclusive = small, poorly fitted or top-dose-only effect; inactive = no such curve, though single readings can be large or run the other way;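 note: % is set by controls: 0 for no effect and ±100 for the full control effect; nearly all actives have a fitted effect of over 50% in size; the assay follows cell death caused by Vpr and the record does not say whether a fall means rescue or toxicity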
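Fission yeast strain RE007, carrying one chromosomally integrated HIV-1 vpr copy, was seeded at OD 0.01 in PMG+AL medium with 23 nL pinned compound. After 24 h at 30 °C and 99% humidity, viability was read by BacTiter-Glo luminescence.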
MARV entry inh: Marburg virus entry inhibition | Marburg virus pseudotyped entry inhibition, cell reporter; control for the full effect not named in the record; about a third of the inactives were read at about 46 µM | Potency, µM (titrated, usually from 37.8 µM), for inactives: top-dose activity change, negative = inhibition, hits mostly inhibitors | 300,000 compounds, 1.8% hits | AID 540276; active = well fitted inhibition curve with a large enough effect; inconclusive = small, poorly fitted or top-dose-only effect, or effect the other way; inactive = flat fitted curve, though single readings scatter; tested in HEK293 cells; about a fifth of its hits are not listed in these tables; note: % is set by controls: 0 for no effect and ±100 for the full control effect; luciferase read-out
SARS PLP yeast: SARS-CoV PLP inhibition in yeast | AID 485353 | 330,000 compounds, 0.19% hits | S. cerevisiae expressing SARS-CoV PLpro, growth rescue; control for the full effect not named in the record | Potency, µM (series often up to 32.9 µM), for the others: top-dose activity, positive = growth rescue; note: 0% is about no effect; nearly all actives have a fitted effect of over 55% in size; growth read by luminescence after 48 h
NS1 inh: blocks influenza NS1 protein function | S. cerevisiae slowed by influenza A NS1, growth recovery by OD600 | Potency, µM (highest dose often 46.1 µM), for the others: top-dose activity, positive = more growth | 270,000 compounds, 0.4% hits | AID 2326; note: actives are rising curves; nearly all actives have a fitted effect of over 50% in size
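In this qHTS, NS1 from influenza A is expressed in budding yeast, where it slows growth. Cells are switched from glucose to 2% galactose medium (pH 6.0, -URA), treated with compound, and growth recovery is read at OD600.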
Cruzain Triton: cruzain (T. cruzi) inhibition with detergent; Potency, µM, for the others: max response, negative = inhibition, most hits filed as inhibitors; purified cruzain, Z-FR-AMC fluorescence, 0.01% Triton; 200,000 compounds, 0.43% hits; active = well fitted curve in the direction sought with a large enough effect; inconclusive = small, poorly fitted or top-dose-only effect, or another doubt; inactive = no such curve, though single readings can be large; an effect the other way counts as inactive or inconclusive;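 note: plate controls were neutral wells for no effect and buffer without enzyme for full effect; nearly all actives have a fitted effect of over 40% in size; top concentration of the series not given in the record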
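Cruzain (1.5 nM) preincubated 15 min at RT with compound in 100 mM sodium acetate pH 5.5, 5 mM DTT, 0.01% Triton X-100. Reaction started with 2 uM Z-FR-AMC; AMC fluorescence (ex 360/em 450 nm) change over 60 s gave rate.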
StopGo reporter: FMDV 2A StopGo reporter, luciferase signal; human cells with a luciferase reporter of 2A StopGo recoding; control for the full effect not named in the record; Potency, µM (doses to about 57.9 µM), inactives show top-dose signal change, negative = less light; 410,000 compounds, 1.2% hits; active = well fitted falling curve with a large enough effect; inconclusive = small, poorly fitted or top-dose-only effect; inactive = no such curve, though single readings can be large or run the other way; tested in HEK293T cells; note: % is set by controls: 0 for no effect and ±100 for the full control effect; nearly all actives have a fitted effect of over 45% in size; luciferase light after 4 h
Lassa entry inh: blocks Lassa virus binding to or entry into cells; Potency, µM (series often up to 37.9 µM), inactives show at the highest dose activity change, negative = inhibition, actives largely listed as inhibitors; 300,000 compounds, 1.2% hits; AID 540256; Lassa virus pseudotype entry inhibition, cell reporter; control for the full effect not named in the record; active means well fitted inhibition curve with a large enough effect; inconclusive means small, poorly fitted or top-dose-only effect, or effect the other way; inactive means flat fitted curve, though single readings scatter; tested in HEK293 cells; note: % is set by controls: 0 for no effect and ±100 for the full control effect; nearly all actives have a fitted effect of over 50% in size; luciferase read-out
Numbers without * were called inactive; u = inconclusive; x = not tested or not shown; [ ] = dose if it differs, or a comment. Unless noted, calls come from the whole dose curve; as a rule, active means well fitted rising curve with a large enough effect; inconclusive means small, poorly fitted or top-dose-only effect; inactive means no such curve, though single readings can be large or run the other way. Potency is the fitted concentration of half-maximal effect.

compound | Cruzain noTriton | RE007 growth inh | MARV entry inh | SARS PLP yeast | NS1 inh | Cruzain Triton | StopGo reporter | Lassa entry inh
O=C(COC(=O)c1ccccc1C(F)(F)F)NC(=O)NCc1ccco1 | x | 21.6% | 7.1% | 1.4% | x | x | 7.9% | u
CCN1C(=O)c2ccc(C(=O)Nc3ccc4c(c3)OCO4)cc2C1=O | x | 0.5% | x | -7.6% | 11.9% | x | 0.0% | x
O=C(CCN1CCN(C(=O)c2ccccc2)CC1)c1ccc(Br)cc1 | x | 28.2µM* | u | -25.4% | 7.4% | x | -6.4% | -17.3%[46.1 µM]
CC(Sc1nnnn1C1CC1)C(=O)N1CC(=O)Nc2ccccc21 (stereo not given) | x | 9.1% | u | -3.5% | x | x | -10.6% | -11.9%
Cc1ccc(-c2nc(SCC(=O)N(C)C3CCS(=O)(=O)C3)[nH]c2-c2ccc(C)cc2)cc1 (stereo not given) | u | -4.3% | 7.2% | -4.4% | -9.0% | -7.1% | -0.8% | -9.4%
CCOC(=O)c1nn(-c2ccc(F)cc2)c(C)c1C(C)=O | 10.4% | -19.4% | -13.3% | -0.8% | 1.0% | 1.3% | -5.1% | -4.9%
Cc1cc(C)cc(N=c2c([N+](=O)[O-])nn(-c3ccc(Cl)cc3)n2O)c1 | x | -12.3% | -24.7% | -4.2% | x | x | 0.8% | -20.9%
O=C(CCN1CCN(c2ccc(F)cc2)CC1)Nc1ccccc1F | -14.8% | -0.7% | 0.9% | -1.3% | 5.3% | -1.9% | -26.7% | -16.8%
Cc1c(C(=O)O)cnc2c([N+](=O)[O-])cnn12 | x | -6.4% | 5.0%[46.1 µM] | 0.0% | x | x | -7.4% | -13.7%
O=C(NCc1ccccn1)c1ccccc1Cl | 6.3% | -12.6% | 12.6% | -1.6% | 4.0% | 5.9% | 13.0% | 27.0%
Cc1ccc(NC(=O)Cn2c(=O)n(CCCCCC(=O)NCc3ccc(F)cc3)c(=O)c3sccc32)c(C)c1 | 0.4% | x | -9.6%[46.1 µM] | x | x | -1.9% | -18.9% | 0.7%[46.1 µM]
Cc1ccc(Cl)cc1NC(=O)N1CCN(C)c2ncccc21 | u | x | 0.9%[46.1 µM] | x | x | -26.9% | -0.2% | -20.5%[46.1 µM]
CCON1C(=O)C(C)(C)N(OCC)C(=O)C1(C)C | x | 5.1% | 11.4%[46.1 µM] | 1.8% | -2.4% | x | 3.9% | 3.1%[46.1 µM]
COc1cc(C(=O)NNC(=O)CCOc2ccccc2C)cc(OC)c1OC | x | 3.0% | 13.4% | 0.8% | x | x | -28.0% | -2.8%
COC(=O)[C@H]1CCCN1C(=O)Nc1cccc(Oc2c(F)c(F)c(F)c(F)c2F)c1 | -6.4% | -5.5% | 13.0% | -0.6% | u | 1.4% | -15.6% | 2.8%
Nc1c(C(=O)OCC2CCCO2)c2nc3ccccc3nc2n1-c1ccc2c(c1)OCCO2 (stereo not given) | u | 2.1% | -6.2% | -1.5% | -9.8% | -2.7% | -30.0% | 10.7%
O=C1CC(N2CCN(c3ccc(F)cc3)CC2)C(=O)N1Cc1ccc(N2CCCC2=O)cc1 (stereo not given) | u | 2.1% | -25.4% | -3.9% | -20.6% | -3.5% | u | u
C=CCc1ccccc1OCC(O)CNC(=O)c1ccccc1C(=O)O (stereo not given) | x | -2.4% | 11.5%[46.1 µM] | 3.0% | -7.7% | x | 4.4% | 23.1%[46.1 µM]
Cc1ccc2c(c1)Oc1ccccc1C=C2C(=O)O | x | 5.0% | u | 0.3% | 1.6% | x | 2.2% | 0.7%
Cc1c(C)n(CCC#N)c2ccccc12 | 8.0% | -4.4% | 14.6% | -7.4% | 10.2% | -1.7% | -24.7% | 2.3%
O=C(COc1ccccc1F)c1ccc(O)cc1O | 8.8% | u | 10.3% | -8.0% | -194.7% | -7.7% | 48.5%[activator] | 17.7%
CC(NC(=O)CSc1nc(=O)cc(N)n1CCc1ccccc1)c1ccccc1 (stereo not given) | 0.6% | 11.4% | u | -3.8% | 23.6% | 1.1% | -21.2% | 1.0%
CCN(CC(=O)Nc1ccccc1C(F)(F)F)C(=O)C1CC(=O)N(Cc2ccccc2)C1 (stereo not given) | x | 0.8% | 4.1% | 9.8% | x | x | 16.6% | -15.7%
Cc1ccc(CNC(=O)COC(=O)c2cc3c(s2)CCC(C)C3)cc1 (stereo not given) | -19.6% | -19.9% | u | 10.0% | -1.5% | -1.1% | 1.5% | 7.94µM*
O=C1Nc2ccccc2Oc2cc(Oc3ccc(Cl)cc3)ccc21 | u | x | x | x | x | -1.7% | -5.6% | u
CC(C)C(=O)Nc1ccc(C(=O)CSc2nnc(C3CC3)n2C2CC2)cc1 | x | 7.2% | 12.2% | 3.3% | x | x | -19.1% | -4.7%
CSc1nc2ccc(NC(=O)c3ccc(=O)[nH]c3)cc2s1 | x | -8.0% | 7.2%[46.1 µM] | 3.2% | -0.2% | x | 1.5% | -20.7%[46.1 µM]
COc1ccc(-c2nnc(CSc3nc4ccccc4c(=O)n3CC(C)C)o2)cc1OC | u | -7.9% | -11.8% | -3.3% | -3.9% | 2.8% | u | -2.5%
O=C1CC(c2ccccc2)CC(O)=C1C=NCCN1CCOCC1 (stereo not given) | -17.6% | 11.5% | 8.8% | -3.6% | -3.5% | -0.8% | x | 3.1%
O=C(O)CN1C(=O)SC(Nc2ccccc2)C1=O (stereo not given) | -17.4% | 4.4% | 7.1% | 24.9% | 10.6% | -0.1% | 23.5% | 20.1%
O=C(Cc1ccc(Cl)cc1)Nc1ccc2oc(=O)ccc2c1 | x | -1.3% | -12.8%[46.1 µM] | -1.1% | u | x | -24.2% | -13.5%
CCN1CCN(C(CNS(=O)(=O)c2ccc(Cl)cc2)c2cccnc2)CC1 (stereo not given) | x | -24.8% | 1.0% | -1.4% | 8.2% | x | 8.8% | 18.7%
Cc1ccc(NC(=O)OCc2cc(-c3ccccc3)on2)cc1 | x | -11.9% | u | -1.5% | -4.5% | x | 44.0%[activator] | 7.4%
CNc1nnc(-c2cc3ccccc3oc2=O)s1 | -9.3% | -13.0% | u | -7.6% | -18.8% | -1.0% | 40.4%[activator] | u
CC(=O)Nc1ccc(N2C(=O)CSC2c2ccccc2)cc1 (stereo not given) | x | 17.3% | x | 0.1% | 1.6% | x | -14.5% | x
Cc1cc(N2CCN(c3cccc(C(F)(F)F)c3)CC2)n2nc(C)nc2n1 | u | -11.4% | u | 2.1% | u | -1.4% | u | -5.7%
Cc1ccc(NC(=O)C(OC(=O)c2ccc(O)cc2)c2ccccc2)cc1Cl (stereo not given) | u | -7.6% | -18.1% | -32.6% | -1.4% | -6.1% | 9.5% | u
COc1cc(OC)c(N(C)S(=O)(=O)c2cccc(C(=O)OCC(=O)NCc3ccco3)c2)cc1Cl | x | -3.9% | -13.5%[46.1 µM] | -0.5% | x | x | u | -29.5%
COc1ccc(C(=O)n2cc(C(C)=O)c3ccccc32)cc1 | x | -18.1% | x | 1.6% | 1.6% | x | -17.1% | x
Cc1ccc2cccc(NC(=O)C(F)(F)F)c2n1 | -0.8% | 11.5% | 5.3% | -0.4% | 2.3% | -0.1% | -9.3% | 17.0%
O=c1ccc(C(F)(F)F)cn1Cc1cc(=O)n2cc(Br)ccc2n1 | x | 8.0% | x | 5.4% | 17.2% | x | -0.6% | x
Cc1ccc(C)c(OCCN2CCOCC2)c1 | x | -3.0% | x | -3.4% | -3.2% | x | -13.6% | x
CC(=O)c1ccc(N2CCN(CC(O)COC(c3ccccc3)c3ccccc3C)CC2)cc1 (stereo not given) | x | -16.6% | u | 0.3% | -9.4% | x | 1.9% | -0.1%
Cc1cccc(OCc2nc(CC(=O)Nc3ccc(C)cc3C)cs2)c1 | -0.9% | x | 1.5%[46.1 µM] | x | x | -2.2% | -8.2% | 4.6%[46.1 µM]
O=C(COC(=O)c1ccc2ccccc2n1)c1ccccc1 | x | -3.6% | 3.5%[46.1 µM] | 1.7% | x | x | 26.4% | x
COc1ccc(CNCC(O)(c2ccc(F)cc2)c2ccc(F)cc2)cc1 | x | -27.2% | u | 0.7% | x | x | -14.3% | u
CC(C)c1ccccc1NC(=O)c1cnccn1 | 6.1% | 4.9% | 20.4% | -1.9% | -7.1% | 2.8% | 10.7% | 24.2%
COc1cc(OC)c(NS(=O)(=O)c2cn(C)cn2)cc1Cl | x | -4.5% | x | 0.4% | -0.7% | x | -6.2% | x
CCOC(=O)N1CCC2(O)CCCCC2C1c1ccc(F)cc1 (stereo not given) | -1.8% | -7.1% | -17.9%[46.1 µM] | -4.2% | u | 0.6% | -19.6% | 7.3%
Cc1ccc2c(c1)NC(c1cccnc1)=NC(c1ccc(F)cc1)=N2 | 4.6% | x | -20.9%[46.1 µM] | x | x | -3.7% | 17.0% | -1.4%[46.1 µM]
O=S(=O)(Nc1nc2ccccc2nc1NCc1ccco1)c1ccc(Cl)cc1 | 20µM* | 2.9% | u | -25.1% | -94.1% | -13.0% | -5.0% | u
COCCCNC(=S)N1CCN(C)CC1 | x | -3.2% | 11.3% | -0.7% | -5.1% | x | 1.0% | 13.5%
O=C(COC(=O)C1C2CC3OC(=O)C1C3C2)Nc1cccc(C(F)(F)F)c1 (stereo not given) | x | -5.2% | 1.3%[46.1 µM] | -0.3% | 5.2% | x | 13.9% | -15.1%[46.1 µM]
Cc1nc(C(=O)N2CCc3c([nH]c4ccccc34)C2c2ccccn2)cs1 (stereo not given) | x | 3.8% | -29.7%[46.1 µM] | -0.4% | 4.9% | x | -1.5% | -29.5%[46.1 µM]
Cc1ccc(C2N=C(N)Nc3nc(=O)c4ccccc4n32)cc1 (stereo not given) | x | -5.8% | x | 0.1% | u | x | -5.3% | x
COc1ccc(S(=O)(=O)n2[nH]c(=O)c(CCO)c2C)c([N+](=O)[O-])c1 | x | -12.4% | 19.6%[46.1 µM] | 0.3% | 3.3% | x | -8.8% | -6.8%[46.1 µM]
